# UCH37 DUB inh: blocks the human deubiquitinase UCH37; purified proteasome/UCH37, Ub-AMC cleavage fluorescence; inhibition, % (test concentration not listed); 0.33% of 330,000 active;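 active means mean of two replicates above 20%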;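 further: 0% = compound-free wells with enzyme and 100% = wells lacking proteasome; stock transfer was 100 nL into about 20 µL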
#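 Material: Human UCH37 enzyme supplied as purified proteasome complex | Schedule: 30 min compound-proteasome preincubation then 25 min substrate reaction, room temperature | Detection: AMC fluorescence from Ub-AMC cleavage, excitation 355 nm, emission 460 nm | Benchmarks: Wells without proteasome as full block, compound-free enzyme plus substrate as uninhibited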
# LANA-H2B inh: blocks KSHV LANA binding to histone H2A/H2B | Q9QR71 | 0.6% of 320,000 active | inhibition, % (no concentration beside the values) | cell-free LANA-H2A/H2B peptide, fluorescence polarization | AID 2629; in the data active means inhibition mostly above about 10%, no sharp cut-off; inactive means mostly below about 6.7%;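 further: stock transfer was 7.5 nL into about 10 µL; 0% = median of vehicle wells and 100% = median of positive control wells; one replicate is shown; the record names a cut of 25% in any replicate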
# Target sequence (Q9QR71 whole entry, looked up): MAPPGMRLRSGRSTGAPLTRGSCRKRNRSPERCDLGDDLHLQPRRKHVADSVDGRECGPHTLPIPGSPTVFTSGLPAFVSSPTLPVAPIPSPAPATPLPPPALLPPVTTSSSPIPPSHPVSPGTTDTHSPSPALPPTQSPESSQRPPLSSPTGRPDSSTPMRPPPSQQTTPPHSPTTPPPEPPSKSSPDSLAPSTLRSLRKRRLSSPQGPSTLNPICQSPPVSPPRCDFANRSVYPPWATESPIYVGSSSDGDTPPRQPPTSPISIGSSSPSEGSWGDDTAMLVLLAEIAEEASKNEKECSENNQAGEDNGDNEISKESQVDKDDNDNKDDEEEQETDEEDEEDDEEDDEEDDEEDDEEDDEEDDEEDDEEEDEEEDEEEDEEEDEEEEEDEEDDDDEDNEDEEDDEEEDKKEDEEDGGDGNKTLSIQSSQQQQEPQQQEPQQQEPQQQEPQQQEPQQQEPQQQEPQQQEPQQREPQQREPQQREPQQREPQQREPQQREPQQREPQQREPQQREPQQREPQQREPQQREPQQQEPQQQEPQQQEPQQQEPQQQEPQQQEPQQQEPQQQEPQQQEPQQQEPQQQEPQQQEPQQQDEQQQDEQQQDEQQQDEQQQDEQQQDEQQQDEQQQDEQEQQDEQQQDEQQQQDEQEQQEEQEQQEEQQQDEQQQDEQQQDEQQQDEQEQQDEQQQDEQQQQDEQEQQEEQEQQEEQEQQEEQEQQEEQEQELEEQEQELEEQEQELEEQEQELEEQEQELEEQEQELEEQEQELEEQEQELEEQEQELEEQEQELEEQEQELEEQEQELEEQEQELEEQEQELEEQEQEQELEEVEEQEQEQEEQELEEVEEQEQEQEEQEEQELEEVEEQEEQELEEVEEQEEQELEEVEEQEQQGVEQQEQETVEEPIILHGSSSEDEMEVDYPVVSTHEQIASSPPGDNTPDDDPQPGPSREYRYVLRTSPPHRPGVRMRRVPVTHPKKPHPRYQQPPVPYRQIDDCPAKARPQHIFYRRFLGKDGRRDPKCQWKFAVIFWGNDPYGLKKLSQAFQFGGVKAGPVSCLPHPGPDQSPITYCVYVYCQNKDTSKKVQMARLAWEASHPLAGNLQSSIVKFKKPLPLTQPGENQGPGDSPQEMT
# Vif TR-FRET: inhibitors of Vif binding to APOBEC3G peptide, primary screen, biochemical, TR-FRET, GST-Vif 1-94, biotin-A3G peptide, dose response retest (AID 1117319). TR-FRET GST-Vif / biotin-A3G peptide binding; higher % means a stronger effect; test concentration not given here; strong numbers were not always called active. inhibition, %, or IC50 in µM where a hit was titrated. 0.57% of 260,000 active;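 active means above the screen mean plus three standard deviations and confirmed in dose response; inconclusive means results disagree or hit not tested in dose response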;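 further: Vif residues 1-94 fused to GST binding biotinylated APOBEC3G peptide 110-148; 0% = full assay without inhibitor and 100% = GST in place of GST-Vif; retest series ran down from 100 µM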
# Bfl-1 A1 inh: inhibitors of the anti-apoptotic protein A1, read as caspase activation | MEF A1-2A-BIM cells, Caspase-Glo 3/7 luminescence, 3 h; percent of clofoctol response, vehicle zero | 0.066% of 330,000 active | caspase activation, % (concentration not given with the values);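 active means over half of replicate activation scores above 10%, or exactly half above 10 with the replicate mean above 10; inconclusive means replicate mean below 10 yet half the replicates above 10; inactive means over half of replicates below 10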;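 further: wells of about 30 µL received 50 nL stock; many hits fall short of the cut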
# Beta2AR agonist: human beta-2 adrenergic receptor agonism by FAP; response, % (test concentration not listed); Am2.2-beta2AR cells, FAP receptor internalization, flow cytometry; reference of the scale not given here; 0.43% of 340,000 active; AID 504454; P07550;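 active means response above a set limit, near 3 SD of response in nonfluorescent compounds, cut at about 42% in these data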;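 further: stock transfer was 100 nL into about 11 µL; a reference agonist was the positive control; negative values mostly stem from fluorescent compounds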
# E coli growth: inhibitors of Escherichia coli growth; OD600 absorbance (no concentration beside the values); 0.21% of 330,000 active; AID 1053175; OD600, 23 h; stronger effect = lower value;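 active means OD600 absorbance below the run mean of sample wells minus 3.6 SD, in any replicate, cut at about 0.56 in these data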;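 further: stock transfer was 300 nL into about 60 µL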
# HNF4A DNA FP: change in binding of human HNF4 alpha to DNA; P41235; HNF4a-FITC DNA binding, fluorescence polarization, 1 h; activity change, % at 10 µM; 0.3% of 360,000 active; AID 1224865; in the data active means activity change above about 30%, passing the limit was not always enough;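 further: controls were the assay level and a saturating level of protein; the project sought stronger binding though the title names inhibitors; some compounds called inactive have numbers as strong as hits; positive values seem to mean higher polarization but the record does not say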
# Starred values were filed as active, the others as inactive; u = inconclusive; x = no result given; & = joins results of further samples. Random draw from the library; about 2.1% have a hit in one of these screens.
SMILES,UCH37 DUB inh,LANA-H2B inh,Vif TR-FRET,Bfl-1 A1 inh,Beta2AR agonist,E coli growth,HNF4A DNA FP
Nc1c(/C=C2/C=CC(=O)C(O)=C2)c(=O)nc2sc(CC(=O)N3CCCCC3)nn12,14,8.2,x,-0.6,-7,0.69,-24
C/C(N)=C(/C#N)C(=O)CSc1nc2cc(Cl)ccc2s1,5.0,-2.3,14%,0.7,-4,0.68,1.7
CC(=O)Nc1oc(-c2cccc3ccccc23)nc1C#N,-49,3.2,x,-2.7,-14,0.67,2.7
Cc1nc2ccc(-c3ccccc3)cc2o1,3.5,-1.9,-2%,-3.9,-3,0.7,0.0
COc1ccc(S(=O)(=O)Nc2cccc(S(=O)(=O)N3CCCCCC3)c2)cc1,3.5,-0.4,x,1.1,2,0.68,2.0
Cc1cccc(C)c1NC(=O)N1CCN(C2CCCCC2)CC1,0.3,1.3,20%,0.2,1,0.71,-1.2
Cc1ccc(CC(=O)Nc2ccc(F)c([N+](=O)[O-])c2)cc1C,6.8,-1.0,7%,0.0,-6,0.64,4.0
O=S(=O)(c1ccccc1Cl)N1CCCC(c2nc(-c3cccnc3)no2)C1 (stereo not drawn),1.6,1.7,1%,-0.1,-1,0.64,-0.8
CCOc1ccccc1NC(=S)N1CCN(c2ccc(O)cc2)CC1,-0.8,-1.0,0%,1.3,5,0.67,1.5
Brc1cccc(-c2nnc3sc(CNCc4ccco4)cn23)c1,4.0,x,-6%,x,-18,0.72,-1.9
CC(C)CNC(=O)C(=O)NCC1OCCCN1S(=O)(=O)c1ccc2c(c1)OCCO2 (stereo not drawn),4.8,0.4,-3%,0.0,-4,0.69,2.7
CCNC(=S)NNC(=O)c1ccoc1C,0.1,0.4,-4%,0.1,-5,0.66,2.5
CCOC(=O)N1CCN(C(=O)C2COc3ccccc3O2)CC1 (stereo not drawn),-0.4,3.8,7%,1.2,0,0.67,-2.5
Cc1nc2ccc(NS(=O)(=O)c3c(F)cc(F)cc3Br)cc2s1,0.4,0.3,-13%,-0.5,27,0.65,15
Cc1nn(Cc2ccccc2)c2sc(C(=O)NCc3cccnc3)cc12,4.7,4.6,u,0.4,-5,0.7,-0.6
CCOC(=O)N1CCN(C(=O)CSc2ccc(-c3cccnc3)nn2)CC1,0.5,2.7,0%,-0.5,x,0.71,x
C/C(=N\NS(=O)(=O)c1ccccc1)c1ccc2c(c1)OCO2,x,2.3,0%,0.1,8,x,-4.1
CCN(CC(=O)Nc1ccccc1C(F)(F)F)C(=O)CSCc1ccc(C)cc1,-0.7,1.4,-2%,-0.6,-4,0.7,-2.6
COc1ccc(NC(=O)COC(=O)Cc2c[nH]c3ccccc23)cc1Cl,0.8,-4.2,-5%,1.7,3,0.62,2.4
CN1CCN(S(=O)(=O)c2ccc3c(c2)oc(=O)n3C)CC1,2.5,-7.9,x,2.6,-107,0.7,9.6

# For convenience, part of the list above:
SMILES,UCH37 DUB inh,LANA-H2B inh,Vif TR-FRET,Bfl-1 A1 inh,Beta2AR agonist,E coli growth,HNF4A DNA FP
COc1ccc(NC(=O)COC(=O)Cc2c[nH]c3ccccc23)cc1Cl,0.8,-4.2,-5%,1.7,3,0.62,2.4
CN1CCN(S(=O)(=O)c2ccc3c(c2)oc(=O)n3C)CC1,2.5,-7.9,x,2.6,-107,0.7,9.6

# Next structures follow:
SMILES,UCH37 DUB inh,LANA-H2B inh,Vif TR-FRET,Bfl-1 A1 inh,Beta2AR agonist,E coli growth,HNF4A DNA FP
CNC(=O)C(=O)NCCN1CCN(S(=O)(=O)c2ccc3ccccc3c2)CC1,3.0,3.2,x,1.0,-8,0.67,-0.6
COc1cc(-c2csc(NC3CCCCC3)n2)cc(OC)c1OC,-1.6,-1.3,x,-1.2,6,0.64,0.6
Cc1ccc(S(=O)(=O)NCC(=O)OCc2ccccc2)cc1,0.3,0.1,-5%,0.4,0,0.7,-0.7
CCn1c(=O)c2cc(C(=O)N3CCN(C)CC3)sc2c2ccccc21,-154,5.7,15%,0.5,-6,0.7,0.3
CCN(CC)CCNC(=O)Cc1c(C(=O)O)n(CC)c2ccccc12,2.3,-7.8,5%,0.3,-6,0.71,0.8
O=C(NCCNS(=O)(=O)c1cccc(C(F)(F)F)c1)c1cc(OCC(F)(F)F)ccc1OCC(F)(F)F,1.3,5.7,7%,0.1,-1,0.67,4.6
O=C(c1ccc2ccccc2c1)N1CCN(c2ccc([N+](=O)[O-])c(N3CCOCC3)c2)CC1,7.3,1.9,0%,0.7,7,0.71,3.9
COc1cc(/C=C2/SC(=S)N(CC3CCCO3)C2=O)ccc1O (stereo not drawn),1.9,x,x,-0.5,2,x,41*
Cc1ccc(S(=O)(=O)N2CCOCC2)cc1NC(=O)CSc1nc(N)cc(=O)[nH]1,2.7,-4.2,x,-0.1,-3,0.69,-0.4
CCN1C(=O)[C@H]2[C@H]3CN=C(SCc4ccccc4)N3[C@@](CC)(C(=O)OC)[C@H]2C1=O,2.1,x,0%,x,3,0.69,-2.9
CC(=O)c1c(C)[nH]c(C(=O)NCc2ccccc2)c1C,1.9,-5.6,1%,0.5,4,0.68,-2.4
CC(C)C(=O)Nc1c(-c2ccccc2Cl)c(=O)c2ccccc2n1C,4.1,3.1,-10%,1.2,-8,0.67,-4.8
C=CCNC(=O)C(C#N)c1nc2ccccc2nc1N1CCCCCC1 (stereo not drawn),-17,-3.6,15%,0.2,-4,0.69,7.0
CC(C)Cc1nc2oc3c(N4CCN(C)CC4)ncnc3c2c2c1CCCC2,-0.6,x,-3%,x,x,0.64,x
COc1ccccc1CN1CCNC(=O)C1CC(=O)NC1CCCCCC1 (stereo not drawn),-0.6,0.6,x,u,0,0.68,-7.2
Cc1nc2ccc(NC(=O)c3ccc(Cl)nc3)cc2s1,5.0,1.8,-7%,0.2,10,0.65,1.9
CCOCC(=O)Nc1nc(-c2ccccc2)c(CC)s1,2.2,3.7,20%,-0.7,-3,0.74,-2.0
O=C(Oc1cccnc1)c1ccc(Cl)cc1,5.4,1.4,11%,-1.1,1,0.68,-1.1
FC(F)(F)c1nnc2sc(-c3cccs3)nn12,-3.9,2.0,-13%,1.0,-1,0.7,-6.9
O=C1/C(=C/c2ccccc2)SC(=S)N1C1CCS(=O)(=O)C1 (stereo not drawn),6.8,1.9,-7%,0.6,-3,0.64,-1.4

# Quoted from the listing:
# In E coli growth, COc1cc(-c2csc(NC3CCCCC3)n2)cc(OC)c1OC has the entry 0.64
# In HNF4A DNA FP, C/C(=N\NS(=O)(=O)c1ccccc1)c1ccc2c(c1)OCO2 has the entry -4.1
# In UCH37 DUB inh, Cc1ccc(CC(=O)Nc2ccc(F)c([N+](=O)[O-])c2)cc1C has the entry 6.8
# In Bfl-1 A1 inh, C/C(N)=C(/C#N)C(=O)CSc1nc2cc(Cl)ccc2s1 has the entry 0.7

# Next section:
SMILES,UCH37 DUB inh,LANA-H2B inh,Vif TR-FRET,Bfl-1 A1 inh,Beta2AR agonist,E coli growth,HNF4A DNA FP
Cc1ccc(S(=O)(=O)N2CCCCC2)cc1NC(=O)CSc1nnc(N)s1,1.3,-1.1,-6%,-0.5,-1,0.68,0.6
COc1ccc(O[C@H]2C=C[C@@H](c3ccccc3)O[C@@H]2CO/N=C(\C)CCN2CCc3nc(-c4ccccc4)c(-c4ccccc4)cc3C2)cc1,x,0.0,u,-0.8,x,x,x
CN(C(=O)c1cccc(NC(=O)Cc2cccc(NC(=O)C3CCCN(C(=O)C4CCCC4)C3)c2)c1)C1CC1 (stereo not drawn),1.4,x,0%,x,-1,0.68,0.3
O=C(NNC(=O)c1sccc1-n1cccc1)Nc1ccc(F)cc1,5.1,1.9,-5%,-0.1,0,0.65,0.0
COc1ccc(Nc2ncnc3c2oc2ccccc23)cc1,-148,2.4,1%,-6.1,-2,x,0.4
FC(F)(F)c1ccc(Cl)c(-n2c(-c3cc(-c4ccco4)[nH]n3)n[nH]c2=S)c1,2.1,3.9,u,0.1,4,0.71,0.6
CCOC(=O)C1CCN(C(=O)CSc2n[nH]c(=O)[nH]c2=O)CC1,4.0,1.8,4%,1.1,-2,0.72,3.7
O=C(CSc1nnnn1-c1ccccc1F)NNC(=O)c1ccco1,1.0,-1.8,3%,1.3,4,0.66,-1.1
O=C(O)c1cccc2c1-c1ccc(Cl)cc1C2,-0.1,x,-7%,x,3,0.68,1.5
CC(/C=N/Nc1nc(C)cc(=O)[nH]1)=C\c1ccccc1,x,-4.1,-5%,-0.7,-9,x,-2.4
NC(=S)N/N=C/c1ccccc1OCCSc1ccc(Cl)cc1,x,x,-8%,-0.2,11,x,0.4
CCn1c(=N)c(S(=O)(=O)c2ccc(Cl)cc2)cc2c(=O)n3ccccc3nc21,-44,x,-7%,0.8,x,0.7,x
COc1ccc(C)cc1NC(=O)CN(C)S(=O)(=O)c1ccc2c(c1)n(C)c(=O)c(=O)n2C,0.3,0.4,-27%,1.0,-4,0.7,-1.4
COc1ccc(OC)c(C2C(C(=O)c3ccco3)=C(O)C(=O)N2CC2CCCO2)c1 (stereo not drawn),12,-3.0,-2%,-0.1,-6,0.71,-0.2
Cc1cccc2cc(CN(Cc3ccco3)C(=O)NC3CCCCC3)c(=O)[nH]c12,-4.6,-4.1,-13%,0.0,-3,0.69,3.7
C[C@H](NC(N)=O)C(=O)Nc1ccc2c(c1)OCO2,2.0,1.5,u,0.1,-1,0.71,-0.1
COc1ccc(-c2cn3ccccc3n2)cc1,-82,-3.1,-1%,-9.2,-11,0.64,-0.7
c1ccc(C2[C@H]3CN(Cc4cccnc4)[C@H](c4ccccc4)C34CC2(c2cccnc2)C4)cc1 (stereo partly drawn),1.4,2.8,x,0.6,7,x,0.1
CCn1c(=O)c(C(=O)Nc2ccc(C)cc2C)c(O)c2ccccc21,-251,-0.8,x,0.8,-3,0.66,0.5
CC1CC(N(C(=O)C2CC2)c2ccccc2)c2ccccc2N1C(=O)C1CC1 (stereo not drawn),5.8,2.9,1%,-0.2,-2,0.72,-4.0
Cc1ccc(C(=O)Nc2nccc(C)n2)cc1,1.5,2.9,x,-1.9,-1,0.65,2.5
COc1ccc(-c2cn(-c3ccccc3)c3[n+]2CCS3)cc1,1.7&0.8,0.0&-0.4,x,1.7&-0.5,-11&2,0.68&0.67,1.9&0.7
COc1cc(OC)cc(-n2nnnc2SCC(=O)NCc2ccc3c(c2)OCO3)c1,4.3,-1.4,7%,-0.1,4,0.71,-0.9
CCOC(=O)N1CCN(C(=S)NC(=O)c2ccc(F)c(F)c2)CC1,0.6,4.0,-5%,-0.3,9,0.69,-3.2
Cc1ccccc1NC(=S)NCCO,-0.9,-0.4,x,-0.8,1,0.69,1.9
CCn1c(SCC(=O)N2CCOCC2)nc2sc3c(c2c1=O)CCCC3,2.8,4.4,4%,3.0,-5,0.69,2.9
Cc1ccc(S(=O)(=O)Nc2ccc(NC(=O)CN3CCCCC3)c(Cl)c2)cc1,1.8,-3.5,15%,-0.5,8,0.69,1.8
NS(=O)(=O)c1ccc(CNC(=O)c2cc(-c3cccnc3)nc3ccc(Cl)cc23)cc1,-14,-11,0%,-0.4,2,0.73,0.2
COc1ccc(C(CNC(=O)COc2ccccc2C)N2CCCCC2)cc1 (stereo not drawn),1.3,x,4%,0.1,0,0.67,4.0
CCc1nnc(NC(=O)CCN2C(=O)CCC2=O)s1,1.6,-1.0,4%,-0.5,-3,0.7,2.4
NC(=O)c1nsc(C(=O)N(CCCN2CCOCC2)C(C(=O)NC2CCCCC2)c2ccc(Cl)cc2)c1N (stereo not drawn),-43,-2.0,x,-0.1,-6,0.67,0.2
O=C(N/N=C/c1cn(-c2ccccc2)nc1-c1cccnc1)c1cccnc1,x,1.7,0%,0.6,13,x,-1.4
CC(=O)c1cc(NC(=O)c2ccc(Cl)cc2)c(=O)oc1/C=C/N(C)C,8.2,6.5,8%,-0.3,-12,0.64,121*
